KAT2A inh = blocks human GCN5L2 histone acetyltransferase | Q92830 | GCN5L2 HAT assay, ThioGlo1 CoA-SH fluorescence | Potency, µM (titrated, usually from 58.9 µM), without a hit: at the highest dose activity change, negative = inhibition, most hits filed as inhibitors | 0.21% of 390,000 active; active = well fitted inhibition curve with a large enough effect; inconclusive = small, poorly fitted or top-dose-only effect, or another doubt; inactive = no such curve, though single readings can be large or run the other way
Target sequence (Q92830 whole entry, looked up): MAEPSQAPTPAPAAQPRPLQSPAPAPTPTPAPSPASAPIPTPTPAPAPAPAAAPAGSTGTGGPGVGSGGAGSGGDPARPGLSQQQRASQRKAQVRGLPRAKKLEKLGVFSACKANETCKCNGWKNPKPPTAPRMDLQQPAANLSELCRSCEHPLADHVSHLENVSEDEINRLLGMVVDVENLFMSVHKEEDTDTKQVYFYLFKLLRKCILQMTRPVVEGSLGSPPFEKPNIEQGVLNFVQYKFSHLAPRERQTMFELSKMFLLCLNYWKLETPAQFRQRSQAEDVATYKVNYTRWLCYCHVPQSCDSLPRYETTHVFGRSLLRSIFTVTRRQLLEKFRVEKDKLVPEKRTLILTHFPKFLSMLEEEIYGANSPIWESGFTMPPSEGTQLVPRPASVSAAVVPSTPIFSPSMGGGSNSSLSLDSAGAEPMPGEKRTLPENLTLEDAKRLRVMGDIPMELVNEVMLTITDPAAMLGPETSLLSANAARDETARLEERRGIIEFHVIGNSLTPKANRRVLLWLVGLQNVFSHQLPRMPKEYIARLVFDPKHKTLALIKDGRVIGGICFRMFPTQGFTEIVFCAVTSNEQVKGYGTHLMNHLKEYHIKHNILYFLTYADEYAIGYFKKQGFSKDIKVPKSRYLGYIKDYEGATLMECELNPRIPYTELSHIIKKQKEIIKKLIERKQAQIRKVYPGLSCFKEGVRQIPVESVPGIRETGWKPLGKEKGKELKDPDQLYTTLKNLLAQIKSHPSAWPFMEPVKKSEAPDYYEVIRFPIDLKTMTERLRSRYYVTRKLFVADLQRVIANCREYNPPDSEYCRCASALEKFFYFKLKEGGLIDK
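Titration-based screen in which CoA formation is detected via maleimide probe ThioGlo1 (50uM) turning fluorescent on thiol reaction; substrates H3(1-25) 75uM and acetyl-CoA 70uM, GCN5L2 20nM, 20 min incubation at room temperature.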
* = called active by the depositor; ? = inconclusive; [ ] = dose if it differs, or a comment. % is scaled to controls: 0 for no effect and ±100 for the full control effect; potency is read from the fitted curve at half-maximal effect. Some of the compounds tested; most or all hits stand in other tables.

KAT2A inh,Structure
-11.9%,CCOC(=O)C1=CN(Cc2ccco2)S(=O)(=O)NC1c1ccc(C(F)(F)F)cc1 (configuration not stated)
-17.1%,CSc1ccccc1NC(=O)Nc1cccc(F)c1
-1.0%,COc1ccc(N2CCN(C(=O)C3CCN(C(=O)c4ccc([N+](=O)[O-])cc4)CC3)CC2)cc1
-6.3%,COc1ccc(C2C(C(=O)OCC(=O)Nc3ccc(C)cc3)CCC(=O)N2c2ccc(OC)cc2)cc1 (configuration not stated)
-2.5%,CC(=O)Oc1ccc(-c2csc(Nc3ccc(S(N)(=O)=O)cc3)n2)cc1
-3.9%,Cc1nc(SCC(=O)Nc2c(C)nn(C)c2C)c2cnn(-c3ccccc3)c2n1
-0.2%,CSc1nc(-c2ccco2)nn1C(=O)Cc1ccccc1
-7.0%,Cc1ccc(N(C)S(=O)(=O)c2cc(-c3cnc(C4CC4)o3)ccc2C)cc1
2.9%,CC(=O)c1c(C(=O)O)[nH]c(C(=O)O)c1C
-13.6%,O=C(COC(=O)c1ccc(F)cc1)NCCc1ccc(F)cc1
0.9%,c1ccc2c(C3CCO3)cccc2c1 (configuration not stated)
-10.4%,CCOC(=O)c1sc(NC(=O)c2sccc2C)cc1C
-0.2%,CC(C)Cc1cc(CN2CCCC(CO)(Cc3cccc(Cl)c3)C2)[nH]n1 (configuration not stated)
0.7%,CC1CCN(C(=O)c2ccccc2NC(=O)Nc2ccccc2)CC1
-1.5%,COC(=O)c1ccccc1NC(=O)COC(=O)/C=C/c1ccco1
-6.1%,CC(=O)c1cccc(NC(=O)c2cc(-c3ccc4c(c3)OCCO4)on2)c1
?,O=C(COc1ccc2cc(Br)ccc2c1)N1CCCC1
-1.4%,N/C(=N\OC(=O)C1CC1)c1ccc([N+](=O)[O-])s1
-5.7%,CN(C)CCCN(C(=O)c1ccc(S(=O)(=O)N2CCc3ccccc3C2)cc1)c1nc2ccc(F)cc2s1
0.1%,CC[C@@H](C)[C@@H]1CN([C@@H](CN2CCC[C@H]2CN2C(N)=NC[C@H]2C(C)C)C(C)C)C(=N)N1CCCC1CCCC1
7.4%,O=[N+]([O-])c1cc(C(F)(F)F)ccc1Sc1ccccn1
-2.4%,C/C(=N/NC(=O)CCc1ccccc1)c1ccc2c(c1)OCO2
-10.8%,Cn1c(C(=O)NCCN2CCc3ccccc3C2)cc2c(=O)n(C)c3ccccc3c21
-7.7%,Cc1nnc(N2CCOCC2)c2nn(-c3ccccc3)c(C)c12
-7.2%,Cc1ccc(C2=NN(S(=O)(=O)c3ccccc3)C(c3ccco3)C2)cc1 (configuration not stated)
-3.1%,O=C(c1cc2cc3ccc(Cl)cc3nc2o1)N1CCN(c2cccc(Cl)c2)CC1
-13.0%,O=C(Nc1ccc(F)c([N+](=O)[O-])c1)C1CC(=O)N(Cc2ccccc2)C1 (configuration not stated)
-5.6%,O=Cc1ccc(-c2nc3ccccc3s2)o1
1.4%,CCCCn1c(N)c(N(CCOC)C(=O)c2cccc(N3C(=O)c4ccccc4C3=O)c2)c(=O)[nH]c1=O
0.9%,Cn1nc(CC(=O)NCCN2C(=O)CSC2=O)c2ccccc2c1=O
-8.3%,N#CCCN1CCN(S(=O)(=O)c2ccc(S(=O)(=O)N3CCCC3)cc2)CC1
-7.5%,COC(=O)c1cc(C(=O)N2CCN(c3ccccc3OC)CC2)cc([N+](=O)[O-])c1
-15.9%,O=C(NCc1nnc(SCc2ccccc2)n1-c1ccc(F)cc1)C12CC3CC(CC(C3)C1)C2
-3.2%,CCN(CC)S(=O)(=O)c1cc(C(=O)N=c2sccn2C)ccc1OC
-13.9%,CCOc1ccc(NC(=O)CSCc2cnn(-c3ccccc3)c2-n2cccc2)cc1
20.9%,Cc1ccc(OCC(=O)Nc2cccc(C(=O)OCc3cc(=O)n4nc(C)sc4n3)c2)cc1
-5.5%,CN(C)C(=O)c1cc2cc([N+](=O)[O-])ccc2s1
-2.8%,CC(C)(C)NC(=O)C1N(c2cccnc2)C(=O)C2C(C(=O)Nc3ccccc3)C3(C)C=CC21O3 (configuration not stated)
-4.3%,COc1cc(OC)c(C(=O)OCN2C(=O)c3ccccc3C2=O)cc1OC
0.8%,COCCn1nnnc1C(C(C)C)N(Cc1cccnc1)Cc1cc2cc(OC)ccc2[nH]c1=O (configuration not stated)
0.7%,CCOC(=O)c1c(C)[nH]c(C(=O)COC(=O)C2CC2)c1C
0.0%,CN(Cc1ccccc1)S(=O)(=O)c1cccc2cccnc12
0.9%,Cc1ccc(Cl)cc1NC(=O)Cn1c(=O)n(C(C)C)c(=O)c2oc3ccccc3c21
-13.0%,CN(C)c1cc(-c2ccc(Cl)cc2Cl)oc(=O)c1Cl
-8.2%,O=C(C/C=N\OCc1ccc([N+](=O)[O-])cc1)Nc1ccc(Cl)cc1
?,O=C(Oc1cccc(NC(=O)c2ccco2)c1)c1ccc(Br)c(S(=O)(=O)N2CCCCC2)c1
4.0%,COCCCNC(=S)N1CCCC(c2nc3cc(C)c(C)cc3[nH]2)C1 (configuration not stated)
-6.4%,O=S(=O)(NC1CCCC1)c1ccc(S(=O)(=O)N2CCN(c3ccccc3)CC2)cc1
58.6%[activator],Cc1ccc(-n2c(=O)c3sccc3n(Cc3cc(=O)n4cc(Cl)ccc4n3)c2=O)cc1F
-3.9%,CCOC(=O)N1CCN(C(=O)C2CCN(S(=O)(=O)c3ccccc3)CC2)CC1
-3.3%,COc1cccc(N/C(SC)=C(/C#N)C(=O)NCc2cccs2)c1
3.4%,CCc1ccc(NC(=O)CN2C(=O)CC(C)S(=O)(=O)c3ccccc32)cc1 (configuration not stated)
-0.3%,C#CCOCCOCCOCCNc1nc(N2CCN(C(=O)[C@H](CO)n3cc([C@@H](N)C(C)C)nn3)CC2)nc(N2CCN(C(=O)[C@H](CCC(=O)O)n3cc([C@@H](N)[C@H](C)CC)nn3)CC2)n1
-1.0%,CC(=O)N1CCN(c2ccc(NCc3ccccc3)cc2)CC1
-0.1%,O=C(NNC(=S)Nc1cccc(C(F)(F)F)c1)c1cccc(Cl)c1
-4.9%,Cc1ccc(C)c(N2CCN(C(=O)Cn3ncc4c(=O)oc5ccccc5c43)CC2)c1
4.4%,CC(CCC(=O)O)C1CCC2C3CC[C@H]4CC(O)CC[C@@]4(C)C3CC(O)[C@]12C (some centres not stated)
-3.4%,Cc1nnc(-c2ccccc2)nc1N1CCOCC1
0.5%,O=C(CSc1nc2ccccc2n1-c1ccccc1)NCC1CCCO1 (configuration not stated)
1.5%,CC1CCN(S(=O)(=O)c2cccc(C(=O)NC3CCS(=O)(=O)C3)c2)CC1 (configuration not stated)

More structures:
KAT2A inh,Structure
-9.0%,COc1ccc(NC(=O)CSc2oc(-c3ccc(F)cc3)nc2S(=O)(=O)c2ccc(C)cc2)c(OC)c1
-5.7%,Cc1ccccc1-c1nc(CN2CCC(C(=O)NCC3CCCO3)CC2)c(C)o1 (configuration not stated)
-19.7%,O=C(CSc1ccc(Br)cc1)Nc1ccccc1N1CCOCC1
-6.0%,CCOc1ccc(C2NC(=O)NC(C)=C2C(=O)OC)cc1C (configuration not stated)
-15.1%,Cc1cnc(C(=O)OCc2ccc(COC(=O)c3cnc(C)cn3)cc2)cn1
-7.4%,COc1ccccc1OC(=O)CN1C(=O)c2ccccc2C1=O
-3.7%,CN(C(=O)CC(NC(=O)c1ccccc1Cl)c1ccccc1)c1ccccc1 (configuration not stated)
-6.4%,COC(=O)CSCC(=O)Nc1nnc(-c2cccc(C)c2)s1
-4.7%,O=C(NCc1cccnc1)c1cc(S(=O)(=O)N2CCCC2)c(Cl)cc1Cl
-8.2%,Cc1ccc(NC(=O)CC(C)S(=O)(=O)c2ccc3c(c2)NC(=O)CO3)c(C)c1 (configuration not stated)
1.8%,N#Cc1cnn2c(N)c(-c3ccc(Cl)cc3)cnc12
-7.6%,CCOC(=O)c1c(-c2ccccc2)n(C)c2ccc(O)cc12
-7.9%,Cc1ccc(C)c(NC(=O)CSc2ccc(S(=O)(=O)N3CCCC3)cn2)c1
0.3%,O=C(Nc1ccccc1)Nc1ccccc1
-6.5%,CCN=C1NN=C(c2cc(C)n(CCc3ccccc3)c2C)CS1
-2.9%,CC(C)CN(C(=O)c1cccc(Cl)c1)c1c(N)n(Cc2ccccc2)c(=O)[nH]c1=O
-6.5%,CCOc1ccc(NC(=O)CN(C)C(=O)c2cc(S(=O)(=O)N(C)C)ccc2N2CCCC2)cc1OCC
-1.5%,O=C1CSC(c2ccccn2)N1Cc1cn2ccccc2n1 (configuration not stated)
-5.6%,COCC(=O)Nc1ccccc1C#N
1.1%,O=C(Nc1ccc(F)c(F)c1)c1cc(S(=O)(=O)N2CCN(c3ccccn3)CC2)ccc1F
-21.5%,CCOc1ccccc1NC(=O)C(OC(=O)c1ccc(O)cc1)c1ccccc1 (configuration not stated)
0.8%,O=C(Cc1ccc(Cl)cc1)Nc1cccc2ncccc12
-6.9%,O=C(Nc1ccccc1N1CCOCC1)c1cc2c(s1)CCCCC2
-5.4%,CCn1cc(C(=O)N2CCN(c3ccccc3OC)CC2)c(=O)c2cc(S(=O)(=O)N3CCC(C)CC3)ccc21
1.7%,CCc1c(C2(O)CCCCC2)[nH]c2ncccc12
-5.9%,COc1cc(OC)cc(-c2c(-c3cccs3)c3cc(-c4ccc(CN5CCOCC5)cc4)ccc3n2C)c1
-1.7%,Cn1nnnc1SCCOc1ccc(C#N)cc1
-7.4%,Cc1ccc(S(=O)(=O)c2cn(CC(=O)Nc3ccc(Cl)cc3)c3ccc(F)cc3c2=O)cc1C
-15.2%,COc1cc(C2CC(=O)Nc3ccccc3S2)cc(OC)c1OC (configuration not stated)
-6.2%,CC(=O)NC1=NC(=O)/C(=C/N2CCOCC2)S1
-3.6%,Cc1ccc(OCC(=O)Nc2ccc3c(c2)CCC3)c([N+](=O)[O-])n1
-0.6%,Clc1ccc(OCCn2cnc(Cl)c2Cl)cc1
0.9%,COCc1ccccc1C1=CC(=O)C[C@H](c2ccc(OC)cc2)C1
-11.8%,Cc1nnc(SCC(=O)NCCN2C(=O)CSC2=O)s1
2.7%,C#CCNC(=O)C1=C[C@H](c2ccccc2)C[C@H](OCCCCO)O1
-4.9%,Cc1ccc(-n2nnnc2Sc2ccc(S(=O)(=O)NCCN(C)C)cc2[N+](=O)[O-])cc1
-7.9%,CCOc1ccc(CCNC(=O)CN2C(=O)NC3(CCCCCC3)C2=O)cc1OCC
-7.3%,S=C(NCCN1CCOCC1)N/N=C/c1c2ccccc2cc2ccccc12
-1.7%,CC1Cc2ccccc2N1C(=O)COc1ccc2c(c1)OCO2 (configuration not stated)
-5.7%,O=C(CN(C(=O)CCC(=O)Nc1nccs1)c1ccc(F)c(Cl)c1)NCC1CCCO1 (configuration not stated)
-13.4%,CC(Oc1ccc(F)cc1)C(=O)Nc1ccccc1C(=O)NC1CC1 (configuration not stated)
-15.9%,Cc1ccc(-c2c3c(=O)n(C)c(=O)n(C)c3c3c(C)nc4ccccc4n23)cc1
-4.0%,C=CCC(O)c1c(-c2ccccc2)nn(C)c1Cl (configuration not stated)
3.1%,CC(C)c1nnc(NC(=O)CCCCCN2C(=O)C3C4C=CC(C4)C3C2=O)s1 (configuration not stated)
4.1%,COCCSc1nnc(NC(=O)CS(=O)(=O)c2ccccc2)s1
-4.0%,CSCCC(NS(=O)(=O)c1ccccc1)C(=O)Nc1nccs1 (configuration not stated)
-0.5%,CCNC(=S)N/N=C/c1c(C)nn(-c2cccc(Cl)c2)c1Cl
0.6%,COc1cc(OC)c(C2C(C#N)=C(N)OC3=C2C(=O)CC(C)(C)C3)cc1OC (configuration not stated)
-1.3%,C/C(=N/NC(=O)c1ccc(Cl)s1)c1ccc(NC(=O)COc2ccc(Cl)cc2)cc1
-4.2%,O=C(CCNS(=O)(=O)c1cccc2nonc12)NC1CCCCCC1
1.3%,Cc1ccccc1N=C1NC(=O)CS1
-0.1%,O=C(CCl)NN1C(=O)NC2(CCCCC2)C1=O
0.2%,CC(C)CNC(=O)c1c(N)n(/N=C/c2ccccn2)c2nc3ccccc3nc12
-5.7%,O=C1c2cnc3nc(SCc4ccc(Cl)cc4)nn3c2CC2c3ccccc3CCN12 (configuration not stated)
-0.4%,COc1ccccc1CCNC(=O)CCn1nc(C)c2c(C)n(-c3ccccc3)nc2c1=O
-1.0%,COc1cc(/C=N/NC(=O)c2cc(C3CC3)[nH]n2)cc(OC)c1OC
0.5%,CCS(=O)(=O)c1ccc2oc(SCC(=O)N3c4ccccc4CC3C)nc2c1 (configuration not stated)
0.4%,COc1ccc2oc(C(=O)OCC(=O)Nc3cc(S(=O)(=O)N4CCOCC4)ccc3OC)c(C)c2c1

High-throughput results from PubChem.
